Screens as filed in PubChem BioAssay.
Sa growth inh – S. aureus growth inhibition | S. aureus RN4220 growth, OD600, 20 h, 42 °C; active compounds read low | relative growth, % (no concentration beside the values) | 170,000 tested, 0.53% active | AID 720641;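 active means growth at 42 °C up to 50% and 20 or more points under that at 30 °C, or under 10% at both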;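 further: 300 nL library stock went into each well; scaled to the means of positive and negative controls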
GIV Gai3 FP – GIV-Galpha-i interaction inhibition. Galpha-i3/FITC-GIV peptide fluorescence polarization, 90 min; active compounds read low; scaled: aluminum fluoride 0%, vehicle 100%. 210,000 tested, 0.42% active. AID 1224905. percent of control (FP), % (test concentration not listed);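 active means replicate mean at 85% of control or lower, very high polarization wells dropped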;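 further: lower values mean more displacement of the GIV peptide from Galpha-i3; wells of about 15 µL received 100 nL stock; the first replicate is given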
Target sequence (P08753 whole entry, looked up): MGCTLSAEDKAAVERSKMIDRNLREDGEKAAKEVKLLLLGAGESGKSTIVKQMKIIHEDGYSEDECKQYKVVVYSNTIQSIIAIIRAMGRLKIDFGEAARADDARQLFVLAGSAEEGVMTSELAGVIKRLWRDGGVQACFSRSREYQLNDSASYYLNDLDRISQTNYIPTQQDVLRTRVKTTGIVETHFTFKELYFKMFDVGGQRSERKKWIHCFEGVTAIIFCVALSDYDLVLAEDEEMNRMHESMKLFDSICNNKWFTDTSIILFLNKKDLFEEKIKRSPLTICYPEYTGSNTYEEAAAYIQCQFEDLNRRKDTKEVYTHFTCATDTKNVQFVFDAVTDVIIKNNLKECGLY
HCMV NEC inh – disrupts HCMV UL50-UL53 complex binding; HTRF UL50-UL53 interaction, normalized percent inhibition; inhibition, % (no concentration beside the values); 190,000 tested, 0.15% active; AID 1918969;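 active means both replicates at 50% or more, plus weaker picks with an unusually low signal ratio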;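 further: stock transfer was 100 nL into about 20 µL; 0% = negative control wells and 100% = wells with untagged competitor protein; inactives centre near -12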
Sa growth inh second temp – further read-out of Sa growth inh, marked with its call; relative growth, %; measured here: growth at 30 °C;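 optical density after 20 h as mean of two plates; 100% = untreated growth and lower means inhibition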
* marks the source's active call; other numbers are inactive results.

How did Cc1cccc(CS(=O)(=O)Cc2ccc(C(=O)NC(C)c3ccccc3)o2)c1 (configuration not stated) do in these assays?
Sa growth inh: 105.7; GIV Gai3 FP: 101.4; Sa growth inh second temp: 88.2

How did Cc1ccc(Nc2ncc(C(=O)Nc3cnc4ccccc4c3)c3ccccc23)cc1Cl do in these assays?
GIV Gai3 FP: 100.5; HCMV NEC inh: -20.9

What do the screens show for `CCc1cc(C#N)c(O)cn1`?
Sa growth inh: 103.6; GIV Gai3 FP: 100.7; HCMV NEC inh: -20.1; Sa growth inh second temp: 96.0

What do the screens show for `CCOc1cc(C(F)(F)F)cnc1/C(N)=N/O`?
Sa growth inh: 116.5; GIV Gai3 FP: 100.0; HCMV NEC inh: -4.9; Sa growth inh second temp: 95.0

Results for O=C(O)C1C2C=CC3(O2)C1C(=O)N1c2ccccc2COC13 (configuration not stated) ?
Sa growth inh: 95.1; GIV Gai3 FP: 109.4; HCMV NEC inh: 19.4; Sa growth inh second temp: 98.1

How did CSCC(=O)Nc1ccc(-c2ccccc2)cc1 do in these assays?
Sa growth inh: 101.3; HCMV NEC inh: -4.5; Sa growth inh second temp: 106.8

Results for CCCN(CCC)S(=O)(=O)c1ccc2c(c1)N(CC(=O)OC)C(=O)CS2 ?
GIV Gai3 FP: 111.8; HCMV NEC inh: -8.3

Results for O=C1NC(=S)N(c2cccc(Cl)c2Cl)C(=O)/C1=C/c1ccc(N2CCCC2)o1 ?
GIV Gai3 FP: 192.6; HCMV NEC inh: -9.1

How did CCOC(=O)CSc1nc2ccc(NC(=O)c3ccc(F)cc3)cc2s1 do in these assays?
Sa growth inh: 100.1; GIV Gai3 FP: 102.4; HCMV NEC inh: -22.2; Sa growth inh second temp: 87.8

What do the screens show for `Cc1onc(-c2cccnc2)c1C(=O)N1CCN(c2ncccn2)CC1`?
GIV Gai3 FP: 98.0; HCMV NEC inh: -13.7

What do the screens show for `O=C(CCCN1C(=O)c2ccccc2C1=O)N1CCCCC1`?
Sa growth inh: 86.9; GIV Gai3 FP: 97.5; HCMV NEC inh: -55.0; Sa growth inh second temp: 83.1

What do the screens show for `CC1=NN(c2ccc(S(N)(=O)=O)cc2)C(=O)/C1=C\c1ccc(-c2ccc(C(=O)O)cc2)o1`?
GIV Gai3 FP: 110.7; HCMV NEC inh: -2.6

How did CC(NC(=O)c1cccs1)C(c1cccs1)N1CCN(c2ccccc2)CC1 (configuration not stated) do in these assays?
Sa growth inh: 98.7; GIV Gai3 FP: 99.3; HCMV NEC inh: -0.1; Sa growth inh second temp: 69.8

Results for CCOC(=O)c1nc(NCc2cc(Br)ccc2OC)c2c(CC)noc2n1 ?
GIV Gai3 FP: 104.9; HCMV NEC inh: -19.2

What do the screens show for `CCC(=O)n1nc(-c2cccnc2)nc1NCc1ccc(F)cc1`?
Sa growth inh: 100.9; GIV Gai3 FP: 100.8; HCMV NEC inh: -33.5; Sa growth inh second temp: 83.7

How did Cn1cc(SCC(=O)O)c2ccccc21 do in these assays?
Sa growth inh: 104.1; GIV Gai3 FP: 98.2; HCMV NEC inh: -24.5; Sa growth inh second temp: 76.4

How did N#Cc1ccc(OCC(=O)Nc2cc(C(F)(F)F)ccc2-n2cncn2)cc1 do in these assays?
Sa growth inh: 102.6; HCMV NEC inh: -2.6; Sa growth inh second temp: 94.3

Results for O=C(O)CC(Cn1[nH]nnc1=S)c1ccccc1 (configuration not stated) ?
Sa growth inh: 85.7; GIV Gai3 FP: 98.7; HCMV NEC inh: -23.3; Sa growth inh second temp: 84.4

Results for CCc1cccc(NC(=O)C2CCC(CNS(=O)(=O)c3ccc4c(c3)CCCC(=O)N4)CC2)c1 (configuration not stated) ?
Sa growth inh: 80.8; GIV Gai3 FP: 96.8; Sa growth inh second temp: 91.2

What do the screens show for `Cc1ccc(C)c(NC(=O)C(OC(=O)c2ccco2)c2ccccc2)c1` (configuration not stated)?
Sa growth inh: 86.7; HCMV NEC inh: 0.6; Sa growth inh second temp: 99.2

Results for NC(N)=NN=C1c2ccccc2-c2ccccc21 ?
Sa growth inh: 50.6; HCMV NEC inh: -71.1; Sa growth inh second temp: 45.8

How did CC(=O)Nc1ccc(Nc2ncnc3c2c(-c2ccccc2)cn3-c2cccc(C)c2)cc1 do in these assays?
Sa growth inh: 90.5; GIV Gai3 FP: 105.4; Sa growth inh second temp: 88.4

Results for COc1ccc(CC(=O)Nc2ccc(-c3noc(-c4ccc(Cl)cc4)n3)cc2)cc1 ?
Sa growth inh: 112.4; GIV Gai3 FP: 104.7; HCMV NEC inh: -24.2; Sa growth inh second temp: 92.4

How did Cc1cc(-c2ccc(C(C)C)c(S(=O)(=O)N3CCOc4ccccc43)c2)on1 do in these assays?
Sa growth inh: 99.5; GIV Gai3 FP: 107.8; HCMV NEC inh: -10.4; Sa growth inh second temp: 95.3

What do the screens show for `CC(C)C(=O)Nc1c(C(=O)N2CCN(c3ccccc3F)CC2)oc2ccccc12`?
Sa growth inh: 86.0; GIV Gai3 FP: 106.3; Sa growth inh second temp: 91.2

What do the screens show for `Cc1cc2c(cc(C(=O)OC(C(=O)NC3CCCC3)c3ccccc3F)n2C)o1` (configuration not stated)?
Sa growth inh: 90.0; GIV Gai3 FP: 105.7; HCMV NEC inh: 8.0; Sa growth inh second temp: 100.2

How did O=C(Cc1csc(NC(=O)c2ccccc2)n1)NCCCc1ccccc1 do in these assays?
GIV Gai3 FP: 104.3; HCMV NEC inh: -27.1

How did O=C(CSc1nnc(-c2ccc(Br)cc2)n1-c1ccccc1)N/N=C/c1ccco1 do in these assays?
Sa growth inh: 97.7; GIV Gai3 FP: 109.6; HCMV NEC inh: 3.7; Sa growth inh second temp: 90.8

What do the screens show for `COc1ccc(N2C(=O)C=CC2=O)cc1OC`?
Sa growth inh: 80.6; HCMV NEC inh: -30.5; Sa growth inh second temp: 63.9

Results for Nc1cnn(C2CCCO2)c(=O)n1 (configuration not stated) ?
Sa growth inh: 105.6; GIV Gai3 FP: 100.0; HCMV NEC inh: -21.7; Sa growth inh second temp: 94.9

Quoted at random: 4 entries already listed
How did N#Cc1ccc(OCC(=O)Nc2cc(C(F)(F)F)ccc2-n2cncn2)cc1 do in these assays?
Sa growth inh: 102.6; HCMV NEC inh: -2.6; Sa growth inh second temp: 94.3

Results for O=C(O)CC(Cn1[nH]nnc1=S)c1ccccc1 (configuration not stated) ?
Sa growth inh: 85.7; GIV Gai3 FP: 98.7; HCMV NEC inh: -23.3; Sa growth inh second temp: 84.4

What do the screens show for `COc1ccc(N2C(=O)C=CC2=O)cc1OC`?
Sa growth inh: 80.6; HCMV NEC inh: -30.5; Sa growth inh second temp: 63.9

How did Cc1cc(-c2ccc(C(C)C)c(S(=O)(=O)N3CCOc4ccccc43)c2)on1 do in these assays?
Sa growth inh: 99.5; GIV Gai3 FP: 107.8; HCMV NEC inh: -10.4; Sa growth inh second temp: 95.3

Remaining list, next part
Results for O=C(O)c1ccccc1Sc1ccccc1S(=O)(=O)NC12CC3CC(CC(C3)C1)C2 ?
Sa growth inh: 97.8; GIV Gai3 FP: 103.3; HCMV NEC inh: 19.1; Sa growth inh second temp: 81.1

Results for CC1CNc2ccccc2N=C1N1CCOCC1 (configuration not stated) ?
Sa growth inh: 97.4; HCMV NEC inh: -10.5; Sa growth inh second temp: 87.0

How did COc1cc(OC)c(C(=O)NCC2CCCO2)cc1OC (configuration not stated) do in these assays?
Sa growth inh: 85.2; HCMV NEC inh: 5.9; Sa growth inh second temp: 90.8

How did CCOC(=O)CSc1sc(C(=O)OCC)c2c1S(=O)(=O)N(C)c1ccccc1-2 do in these assays?
Sa growth inh: 107.9; GIV Gai3 FP: 101.6; HCMV NEC inh: -6.3; Sa growth inh second temp: 96.6

Results for CCC1=Nc2cc(C(=O)NCc3ccccc3Cl)ccc2Sc2ccc(C)cc21 ?
Sa growth inh: 93.9; GIV Gai3 FP: 108.6; Sa growth inh second temp: 96.1

Results for Cc1nn(C)c2nc(OC(C)C(=O)N3CCCC3)cc(C(F)(F)F)c12 (configuration not stated) ?
GIV Gai3 FP: 102.1; HCMV NEC inh: -30.0

Results for COCC(C)N=C1SCCN1Cc1ccccc1 (configuration not stated) ?
Sa growth inh: 93.3; HCMV NEC inh: -17.5; Sa growth inh second temp: 95.4

How did Cc1ccc(-n2c3c(cc(C(N)=O)c2=O)C(=O)CC(C)(C)C3)cc1 do in these assays?
Sa growth inh: 90.9; GIV Gai3 FP: 98.7; HCMV NEC inh: -25.2; Sa growth inh second temp: 71.7

Results for CCC(=O)N1c2ccccc2NC2=C(C(=O)CC(c3cccc([N+](=O)[O-])c3)C2)C1c1ccc(Cl)cc1 (configuration not stated) ?
GIV Gai3 FP: 99.1; HCMV NEC inh: -19.2

What do the screens show for `COc1cccc(CNC(=O)C2CCCN(C(=O)c3cnn(-c4ccc(F)cc4)c3-n3cccc3)C2)c1` (configuration not stated)?
Sa growth inh: 112.4; GIV Gai3 FP: 103.4; HCMV NEC inh: 8.6; Sa growth inh second temp: 100.9

What do the screens show for `Cc1ccc(C(=O)CSc2cccc[n+]2[O-])cc1`?
Sa growth inh: 84.6; HCMV NEC inh: 7.2; Sa growth inh second temp: 89.5

What do the screens show for `O=C(Nc1ccc(Cl)cc1)C1CCC(CNS(=O)(=O)c2ccc(Br)s2)CC1` (configuration not stated)?
Sa growth inh: 101.6; GIV Gai3 FP: 101.7; HCMV NEC inh: -15.2; Sa growth inh second temp: 91.9

What do the screens show for `COc1cccc(C2C3=C(CCCC3=O)NC3=C2C(=O)CCC3)c1`?
Sa growth inh: 95.5; GIV Gai3 FP: 102.0; HCMV NEC inh: -29.4; Sa growth inh second temp: 88.5

What do the screens show for `CC(C)c1ccc(C2Nc3ccccc3S(=O)(=O)N2Cc2ccccc2)cc1` (configuration not stated)?
Sa growth inh: 76.9; GIV Gai3 FP: 105.5; Sa growth inh second temp: 84.9

What do the screens show for `Nc1nc(-c2ccco2)nn1C(=O)Cc1ccccc1`?
Sa growth inh: 111.5; GIV Gai3 FP: 97.5; Sa growth inh second temp: 86.8

Results for CCN(CC)C(=O)C1=C(C)Nc2nc3ccccc3n2C1c1ccc(Cl)cc1 (configuration not stated) ?
Sa growth inh: 106.0; GIV Gai3 FP: 98.3; HCMV NEC inh: -3.5; Sa growth inh second temp: 89.2

How did COCCCn1[nH]nnc1=S do in these assays?
Sa growth inh: 84.4; HCMV NEC inh: 1.2; Sa growth inh second temp: 92.5

Results for Cc1cc(F)ccc1NC(=O)CN1C(=O)CC(C)(C)S(=O)(=O)c2ccccc21 ?
Sa growth inh: 98.5; GIV Gai3 FP: 101.6; HCMV NEC inh: 10.0; Sa growth inh second temp: 91.3

Results for O=C(NCc1cccnc1)c1ccc(NC(=O)c2ccco2)cc1 ?
Sa growth inh: 99.3; GIV Gai3 FP: 97.6; HCMV NEC inh: 1.9; Sa growth inh second temp: 89.6

What do the screens show for `CCOc1ccc(CCNC(=O)C(CC)n2nc(C)c3c(C)n(-c4ccccc4)nc3c2=O)cc1` (configuration not stated)?
Sa growth inh: 95.7; GIV Gai3 FP: 99.4; Sa growth inh second temp: 85.1

What do the screens show for `CC1(C)CC(=O)c2cc(OCC(=O)NCCCN3CCCC3)ccc2O1`?
Sa growth inh: 95.5; GIV Gai3 FP: 102.6; HCMV NEC inh: -20.8; Sa growth inh second temp: 87.6

How did COc1ccccc1NC(=O)c1oc2ccccc2c1NC(=O)c1ccc(S(=O)(=O)N(C)C)cc1 do in these assays?
Sa growth inh: 116.8; GIV Gai3 FP: 103.4; HCMV NEC inh: -11.7; Sa growth inh second temp: 94.8

What do the screens show for `CCn1c2ccccc2c2nnc(SCC(=O)N=C3NC(=O)CS3)nc21`?
Sa growth inh: 91.0; GIV Gai3 FP: 97.1; HCMV NEC inh: -42.1; Sa growth inh second temp: 65.9

What do the screens show for `COCCNC(=O)Cn1nc(-c2ccc(C)cc2)c2ccccc2c1=O`?
Sa growth inh: 113.2; GIV Gai3 FP: 102.8; HCMV NEC inh: -40.3; Sa growth inh second temp: 78.4

What do the screens show for `O=C(NCC(c1cccnc1)N1CCN(Cc2ccccc2)CC1)c1ccccc1` (configuration not stated)?
Sa growth inh: 91.5; GIV Gai3 FP: 105.7; Sa growth inh second temp: 91.1

Results for Cc1nc(-c2ccccc2)sc1CCNC(=O)C(=O)Nc1ccc2c(c1)OCO2 ?
Sa growth inh: 119.1; GIV Gai3 FP: 101.4; Sa growth inh second temp: 92.5

What do the screens show for `N#Cc1cc(Cl)c(N2CCCCCC2)cc1C#N`?
Sa growth inh: 105.9; GIV Gai3 FP: 102.6; HCMV NEC inh: -16.3; Sa growth inh second temp: 80.7

Results for CCN(CC)CCNc1ccc2nnc(CCNS(=O)(=O)c3ccc(C)cc3)n2n1 ?
Sa growth inh: 95.1; GIV Gai3 FP: 98.5; HCMV NEC inh: -15.3; Sa growth inh second temp: 90.7

Compounds above that contain an NH in an aromatic ring:
Results for O=C(O)CC(Cn1[nH]nnc1=S)c1ccccc1 (configuration not stated) ?
Sa growth inh: 85.7; GIV Gai3 FP: 98.7; HCMV NEC inh: -23.3; Sa growth inh second temp: 84.4

How did COCCCn1[nH]nnc1=S do in these assays?
Sa growth inh: 84.4; HCMV NEC inh: 1.2; Sa growth inh second temp: 92.5
